Screens: PubChem, National Center for Advancing Translational Sciences (NCATS)
PINK1 expr mod: changes PINK1 expression; Potency, µM (top dose mostly 76.6 µM), for inactives: at the highest dose activation (PINK1 increase), hits mostly activators; actives 0.2% (n = 410,000); PINK1 immunofluorescence, high-content cytometry, 24 h; active = well fitted activation curve with a large enough effect; inconclusive = small, poorly fitted or top-dose-only effect; inactive = flat fitted curve, though single readings scatter; cell line not stated here;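 also: potency is read from the fitted curve at half-maximal effect; % of control where 0% means no effect; nearly all actives have a fitted effect of over 65% in size; a mitochondrial uncoupler was the plate control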
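Fluorescence from anti-PINK1 antibody, together with nuclear and cell stains, was scanned on a laser-scanning cytometer. Before staining, stable-line cells were incubated 24 hours with compounds at 5 concentrations; primary antibody 12 h at 10 degrees C.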
Six1-Eya2 blk: inhibitors of human Six1/Eya2 interaction | AID 651725 | activity change, % (no concentration beside the values) | actives 0.56% (n = 360,000) | Q15475+O00167 | AlphaScreen GST-Six1/His-Eya2 binding, biochemical; active compounds read low; control for the full effect not named in the record; in the data active = activity change below about -65%; inconclusive = about -30% to -65%; inactive = above about -30%; also: % is scaled to controls: 0 for no effect and ±100 for the full control effect
Target sequence (O00167 whole entry, looked up): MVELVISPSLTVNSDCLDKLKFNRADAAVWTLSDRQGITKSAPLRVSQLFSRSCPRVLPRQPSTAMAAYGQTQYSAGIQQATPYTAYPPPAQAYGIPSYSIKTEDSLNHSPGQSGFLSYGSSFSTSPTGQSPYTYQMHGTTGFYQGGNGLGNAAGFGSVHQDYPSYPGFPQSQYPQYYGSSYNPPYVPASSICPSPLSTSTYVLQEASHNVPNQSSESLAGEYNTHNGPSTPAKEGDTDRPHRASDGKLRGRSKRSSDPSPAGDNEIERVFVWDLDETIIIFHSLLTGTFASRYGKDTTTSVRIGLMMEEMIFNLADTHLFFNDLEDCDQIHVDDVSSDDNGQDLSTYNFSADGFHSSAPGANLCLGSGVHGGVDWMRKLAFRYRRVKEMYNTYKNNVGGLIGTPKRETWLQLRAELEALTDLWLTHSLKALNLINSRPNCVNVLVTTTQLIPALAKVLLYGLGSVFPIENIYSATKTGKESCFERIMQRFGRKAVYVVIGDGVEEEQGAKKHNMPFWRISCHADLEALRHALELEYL
Target sequence (Q15475 whole entry, looked up): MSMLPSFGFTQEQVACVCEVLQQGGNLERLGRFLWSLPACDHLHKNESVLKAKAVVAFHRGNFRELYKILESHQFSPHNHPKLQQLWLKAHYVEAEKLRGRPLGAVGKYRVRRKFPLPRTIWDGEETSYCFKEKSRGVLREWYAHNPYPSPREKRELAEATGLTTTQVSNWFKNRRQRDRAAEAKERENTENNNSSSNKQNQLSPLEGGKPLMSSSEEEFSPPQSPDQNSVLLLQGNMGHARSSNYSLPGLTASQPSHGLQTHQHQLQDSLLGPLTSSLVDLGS
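Compounds are tested against tagged Six1 and Eya2 proteins bridged by glutathione donor and nickel acceptor beads; after a one-hour incubation at 37 °C without light, AlphaScreen emission is recorded.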
D2 PAM: positive allosteric modulators of human D2 dopamine receptor; P14416; DiscoveRx D2 beta-arrestin cells, luminescence, 90 min; 100% = 57 uM dopamine signal; potentiation, % (no concentration beside the values); actives 0.23% (n = 360,000); AID 624464; active = potentiation of 50% or more; inconclusive = 30% to 50%; inactive = 30% or less;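 also: compound concentration not given in the record; tested on top of an EC20 dose of dopamine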
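D2 cells co-treated with compound plus 50 nM dopamine (EC20) for 90 min at 37 deg C to detect potentiation. Beta-arrestin recruitment was read as enzyme-fragment luminescence after 1 h at ambient temperature. Full response was set by 57 uM dopamine.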
TRPML1 agonist: human mucolipin-1 channel agonism | Q9GZU1 | TRPML1-expressing cells, Ca2+ dye fluorescence, FDSS; host cell line not named in the record; reference of the full effect not given here | activation, % (concentration not given with the values) | actives 0.12% (n = 410,000) | AID 624414; in the data active = activation above about 50%; inconclusive = about 30% to 50%; inactive = below about 30%; also: 0% is about no effect; the text of the record puts the active cut at 80%
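Kinetic FDSS Ca2+ read in Tet-induced TRPML1-DL cells (ABD Ca8 dye plus quencher, 45-90 min RT loading): baseline, then compound, then 110 s agonist window; EC80 agonist 54-4 at 4uM final added afterwards for a 110 s antagonist window.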
D2 agonist: activates the human D2 dopamine receptor; P14416; actives 0.084% (n = 360,000); AID 624465; activation, % (test concentration not listed); DiscoveRx PathHunter D2 beta-arrestin, luminescence, 90 min; 100% = 57 uM dopamine signal; in the data active = activation above about 40%; inconclusive = about 15% to 40%; inactive = below about 15%; also: compound concentration not given in the record; the text of the record calls up to 30% inactive
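DiscoveRx PathHunter D2 beta-arrestin cells (2,100/well) attached overnight, then compound-stimulated 90 min at 37 C in HBSS/10 mM HEPES/0.1% Tween-20 buffer; beta-galactosidase complementation read by luminescence after 1 h at ambient temperature. Dopamine 57 uM final (EC100) as control.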
TRPML1 blocker: human mucolipin-1 channel inhibition. Q9GZU1. TRPML1-inducible cells, Ca2+ dye fluorescence, FDSS; active compounds read low; inhibition of EC80 agonist-evoked calcium signal. activity change, negative = inhibition, % (test concentration not listed). actives 0.02% (n = 390,000); in the data active means activity change below about -50%; inconclusive means about -30% to -50%; inactive means above about -30%;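 also: stimulus is agonist 54-4 at its EC80 concentration; % is scaled to controls: 0 for no effect and ±100 for the full control effect; compound concentration not given in the record; the text of the record puts the active cut at -80%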
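Tet-induced TRPML1-DL cells loaded with Ca8 no-wash calcium dye were read kinetically on FDSS. Compound addition was followed by EC80 agonist 54-4 (4 uM final); inhibition was read over 110 s.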
* hit, by the source's call; ? = inconclusive; . = not tested or not shown; [ ] = dose if it differs, or a comment.

item	mol	PINK1 expr mod	Six1-Eya2 blk	D2 PAM	TRPML1 agonist	D2 agonist	TRPML1 blocker
1	CC(=O)c1ccc(S(=O)(=O)NCCc2csc(-c3cccnc3)n2)cc1	-1.5%	3	2	0.1	-2.8	22
2	CCOc1cc(C(=O)Nc2c3c(nn2C(C)(C)C)CS(=O)C3)cc(OCC)c1OCC (stereo unspecified)	-0.1%	3	-24	-0.1	-2.2	17
3	CCN(CC(=O)Nc1ccc(NC(C)=O)cc1)C(=O)c1cccc(S(=O)(=O)N2CCCC2)c1	-1.1%	3	-2	1.2	3.4	-16
4	Cc1cc(NC(=O)CCC(=O)N(CC(=O)NC2CCCC2)c2ccccc2)no1	-0.1%	-20	-8	-0.7	-4.9	3
5	COc1cc([N+](=O)[O-])ccc1NC(=O)CCS(=O)(=O)c1ccc2c(c1)n(C)c(=O)c(=O)n2C	-0.6%	-1	-1	-0.3	1.7	-1
6	COc1ccccc1-c1noc(CSc2nnc(Cc3ccccc3)n2-c2ccc(C)c(C)c2)n1	-1.2%	.	.	1.3	.	-19
7	O=C(NCc1ccco1)C1CCN(C(=O)N2CCOc3ccc(Cl)cc32)CC1	1.8%	.	.	-0.3	.	-18
8	CC1(C)CN=C(N(Cc2ccccc2)C(=O)Nc2ccccc2)S1	0.4%	10	-19	6.2	0.6	-16
9	Cc1ccc(SCCC(=O)Nc2c(C)n(C)n(-c3ccccc3)c2=O)cc1	-1.2%	3	-7	1.3	-1.9	6
10	COC(=O)c1ccc(NC(=O)CCc2c(C)nc3c(c(C)nn3C(C)(C)C)c2C)cc1	-5.2%	.	.	5.0	.	-13
11	COC(=O)c1ccc(NC(=O)c2ccc(N(C)S(C)(=O)=O)cc2)cc1	-1.8%[38.3 µM]	1	-14	-0.4	2.2	13
12	COCCCN1C(=O)C(=O)/C(=C(/O)c2ccccc2)C1c1ccc2c(c1)OCO2 (stereo unspecified)	.	-1	-8	-0.3	-3.4	30
13	Cc1ccc(NC(=S)NC(=O)C2CC2)cc1Cl	2.3%	-2	-7	0.6	1.6	9
14	COc1ccc2c(c1)[C@@H]1[C@H](CO2)[C@H](c2ccccc2)[C@]2(C)C(=O)NCC(=O)N12	-0.6%	4	1	0.2	2.7	26
15	Oc1c(C=NCc2ccccc2)sc2ccccc12	3.6%	-15	-24	-0.2	-0.5	-7
16	Cc1ccn2c(C=O)c(-c3ccc(F)cc3)c(C=O)c2c1	0.2%	4	-1	1.3	-5.5	-18
17	Cc1ccc(C(=O)N2CCN(c3ncccn3)CC2)cc1S(=O)(=O)N1CCCCC1	0.0%	0	0	0.0	9.3	-1
18	CCN(Cc1ccccc1)C(=O)CN1C(=O)c2ccccc2C1=O	0.3%	26	-1	2.4	-3.4	2
19	COCCNC(=O)CN(c1ccc(C)cc1)S(=O)(=O)c1ccccc1	0.7%[38.3 µM]	3	-1	0.0	-0.9	6
20	CCOC(=O)C1(C)CCN1C(=O)c1cccnc1Oc1ccccc1 (stereo unspecified)	1.4%	0	1	-0.7	-2.5	.

Next results follow.
item	mol	PINK1 expr mod	Six1-Eya2 blk	D2 PAM	TRPML1 agonist	D2 agonist	TRPML1 blocker
21	CC(C)c1ccc(C(=O)N/N=C/c2cccc(Cl)c2Cl)cc1	0.7%	4	-24	0.6	1.1	2
22	CCN(CC)C(=O)c1sc2c(c1C)c(=O)n(-c1ccc(OC)cc1OC)c(=O)n2CC(=O)Nc1ccccc1	-0.2%	.	.	1.6	.	-1
23	C/C=C/c1ccc(OCC(=O)OCC(=O)NC2CC2)c(OC)c1	-0.3%	8	7	0.3	-2.6	-4
24	Cc1cccc(NC2=NC(C)(C)N=C(N)N2)c1C	-0.2%	0	-20	0.5	0.6	-2
25	CCCCOc1ccc(C(=O)NCC(=O)N2CC=C(c3ccccc3)CC2)cc1	0.1%	4	-3	-0.2	1.2	23
26	O=C(COC(=O)c1ccccn1)NC12CC3CC(CC(C3)C1)C2	0.7%	2	-3	0.0	-0.9	7
27	CCOC(=O)C1CCN(C(=O)C(CCSC)NC(=O)c2ccccc2OC)CC1 (stereo unspecified)	-0.2%	4	-8	-1.3	-2.4	25
28	CCOC(=O)[C@@H]1[C@H]2COc3cc(OC)ccc3[C@H]2N2C(=O)N(c3ccc(F)cc3)C(=O)[C@]12C	0.0%	0	-23	-1.1	0.9	50
29	COc1ccc(Nc2nc(N)nc(CSc3nccn3C)n2)cc1	0.6%	-1	-2	0.3	-4.1	4
30	COc1ccc(N2CCN(C3CCCCC3NS(=O)(=O)c3ccc(Cl)cc3)CC2)cc1 (stereo unspecified)	0.3%	?	-37	63*	-2.1	-17
31	CC1CCN(C(=O)c2ccc(NS(=O)(=O)c3ccccc3)cc2)CC1	0.7%	5	-18	-0.3	7.7	6
32	O=C(Nc1ccc(S(=O)(=O)NCCc2ccccc2)cc1)c1ccco1	3.0%[38.3 µM]	-8	-9	0.4	-1.3	7
33	NC(=O)c1ccc(NC(=S)NCc2ccco2)cc1	-2.2%	5	13	1.6	-1.4	-2
34	C/C=C\C(=O)Nc1cccc(C2=NOC3(C2)C[C@@H](C(N)=O)N(C(=O)CC(c2ccccc2)c2ccccc2)C3)c1 (stereo partly specified)	1.4%	-12	1	-0.4	0.7	-17
35	CC1CCc2sc(C(=O)NNS(=O)(=O)c3ccc(F)c(F)c3F)cc2C1 (stereo unspecified)	3.8%	6	-13	0.1	-7.5	1
36	O=C(N/N=C/c1ccc([N+](=O)[O-])o1)c1ccc2c(c1)OCO2	?	-7	-17	0.9	6.9	9
37	Cc1cc(C)n(-c2nc3ccccc3nc2Nc2ccc(Cl)c(Cl)c2)n1	0.7%	.	.	0.2	.	4
38	Clc1cccc(CSc2nnc(-c3sccc3-n3cccc3)o2)c1	2.1%	0	-5	2.2	-0.3	17
39	COc1ccc(/C=N/n2cc(-c3ccccc3)nc2N)cc1	9.3%	-8	-8	-0.4	-5.4	-11
40	Cc1ccccc1OCC(=O)NCC(c1ccco1)N1CCCCC1 (stereo unspecified)	3.2%	-3	-21	-0.2	-5.1	-9

Filtered by structure: those above containing two or more sulfur atoms (3)
item	mol	PINK1 expr mod	Six1-Eya2 blk	D2 PAM	TRPML1 agonist	D2 agonist	TRPML1 blocker
1	CC(=O)c1ccc(S(=O)(=O)NCCc2csc(-c3cccnc3)n2)cc1	-1.5%	3	2	0.1	-2.8	22
35	CC1CCc2sc(C(=O)NNS(=O)(=O)c3ccc(F)c(F)c3F)cc2C1 (stereo unspecified)	3.8%	6	-13	0.1	-7.5	1
38	Clc1cccc(CSc2nnc(-c3sccc3-n3cccc3)o2)c1	2.1%	0	-5	2.2	-0.3	17

Following part
item	mol	PINK1 expr mod	Six1-Eya2 blk	D2 PAM	TRPML1 agonist	D2 agonist	TRPML1 blocker
41	O=C(NCC(c1cccs1)S(=O)(=O)c1cccs1)c1ccc(Cl)cc1 (stereo unspecified)	-0.3%	.	.	0.2	.	27
42	COc1cc(/C=N/Nc2nc3ccccc3s2)cc([N+](=O)[O-])c1O	0.9%	-82*	-10	0.9	-6.3	-5
43	COc1cc(-c2ccno2)ccc1S(=O)(=O)N1CCN(c2cccc(Cl)c2)CC1	0.0%	.	.	1.3	.	6
44	COc1ccc(CCN2C(=O)N(c3ccccc3)C(=O)C2CC(=O)Nc2ccccc2)cc1 (stereo unspecified)	0.7%	.	.	0.7	.	2
45	Cc1ccc(NC(=O)C(=O)NCCN2CCN(S(C)(=O)=O)CC2)cc1	-1.2%	-3	-2	0.0	-3.0	8
46	COc1ccc2[nH]cc(C(O)CN3CCN(c4ccccc4F)CC3)c2c1 (stereo unspecified)	-0.5%	-8	-16	0.9	-3.1	0
47	CCOc1ccccc1NC(=O)c1c(NC(=O)C(C)Oc2cccc(Cl)c2)sc2c1CCCCC2 (stereo unspecified)	0.9%	.	.	0.3	.	-8
48	N#CCC(=O)N/N=C/c1ccc(OCc2ccccc2)cc1	-2.2%	7	-2	0.8	-1.9	-2
49	Cc1ccc(N=Nc2c(C)[nH]n(C(N)=S)c2=O)cc1C	0.1%	-9	-10	1.5	-2.9	1
50	COc1ccc(C(=O)Nc2ccc(-c3ccc(NC(=O)c4ccc(OC)cc4)c(OC)c3)cc2OC)cc1	4.2%	10	1	-0.3	-0.8	-3
51	COc1ccc(NC(=O)Cn2cccc2)c(OC)c1	2.2%[38.3 µM]	-2	-7	2.4	3.5	-1
52	CCN(C(=O)C1CCCN1S(=O)(=O)c1ccc2c(c1)n(C)c(=O)c(=O)n2C)c1ccccc1 (stereo unspecified)	2.8%	2	-3	-0.2	0.6	1
53	Cc1ccc(-c2onc3ccc(C=O)cc23)cc1	1.0%	11	59*	-0.2	9.6	-17
54	CC(C)CN(C(=O)CSc1nnc2c(Cl)cc(C(F)(F)F)cn12)C1CCS(=O)(=O)C1 (stereo unspecified)	0.0%	-14	-2	-0.4	-1.2	-12
55	Brc1ccc(NC2=Nc3ccccc3CC2)cc1	2.3%	2	-8	3.9	0.2	22
56	CCOC(=O)c1ccccc1NC(=O)CN(c1ccccc1)S(=O)(=O)c1ccc(OCC)cc1	-0.2%	.	.	-0.3	.	4
57	Cc1cc(-c2nnc(SCC(=O)Nc3nc(-c4ccccc4)cs3)o2)no1	-1.8%	-10	1	0.0	-1.9	?
58	Cc1cc(Br)cn2c(Cc3ccccc3)c(-c3ccc(Cl)cc3)nc12	1.6%	-1	.	-0.3	.	.
59	Fc1ccc(COc2cccc(-c3n[nH]c(=S)o3)c2)cc1	-0.6%	-1	-11	0.7	-5.0	-10
60	COc1ccc([N+](=O)[O-])cc1NCc1ccccc1	18%	29	-20	0.8	-4.9	50

Next structures follow:
item	mol	PINK1 expr mod	Six1-Eya2 blk	D2 PAM	TRPML1 agonist	D2 agonist	TRPML1 blocker
61	Cc1cc2ccccc2n1-c1ccc(C(=O)N2CCC(C(=O)NCc3ccc(Cl)cc3)CC2)s1	1.4%	.	.	0.9	.	-16
62	Cc1ccc(C)c(NC(=O)CSc2ccc3nc(-c4ccccc4)cn3n2)c1	0.1%	.	.	0.5	.	-3
63	CC1CCN(S(=O)(=O)c2ccc3c(c2)N(CC(=O)Nc2ccc(F)c(Cl)c2)C(=O)CO3)CC1	5.4%	.	.	1.8	.	-1
64	O=C(Nc1nnc(-c2ccccc2Cl)o1)c1nc2ccccc2s1	2.9%	-1	-7	65*	-2.6	2
